Compound activity deposited in PubChem BioAssay by several laboratories.
Vif TR-FRET – inhibitors of Vif binding to APOBEC3G peptide, primary screen, biochemical, TR-FRET, GST-Vif 1-94, biotin-A3G peptide, dose response retest (AID 1117319). actives 0.57% (n = 260,000). TR-FRET GST-Vif / biotin-A3G peptide binding; higher % means a stronger effect; test concentration not given here; strong numbers were not always called active. inhibition, %, or IC50 in µM where a hit was titrated;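 active = above the screen mean plus three standard deviations and confirmed in dose response; inconclusive = results disagree or hit not tested in dose response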;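 note: Vif residues 1-94 fused to GST binding biotinylated APOBEC3G peptide 110-148; 0% = full assay without inhibitor and 100% = GST in place of GST-Vif; retest series ran down from 100 µM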
ALR H2O2 inh – blocks human ALR sulfhydryl oxidase activity; inhibition, % (concentration not given with the values); purified ALR, DTT oxidation, H2O2 HRP-luminol luminescence; AID 485317; actives 3.8% (n = 290,000);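 active = mean and each replicate at 75% or more; inconclusive = only one of the two met; inactive = neither met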;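 note: stock transfer was 7.5 nL into about 7.5 µL; 0% = neutral wells and 100% = wells with inactivated enzyme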
LANA-H2B inh – blocks KSHV LANA binding to histone H2A/H2B | cell-free LANA-H2A/H2B peptide, fluorescence polarization | inhibition, % (concentration not given with the values) | actives 0.6% (n = 320,000) | AID 2629; in the data active = inhibition mostly above about 10%, no sharp cut-off; inactive = mostly below about 6.7%;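 note: stock transfer was 7.5 nL into about 10 µL; 0% = median of vehicle wells and 100% = median of positive control wells; one replicate is shown; the record names a cut of 25% in any replicate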
Target sequence (Q9QR71 whole entry, looked up): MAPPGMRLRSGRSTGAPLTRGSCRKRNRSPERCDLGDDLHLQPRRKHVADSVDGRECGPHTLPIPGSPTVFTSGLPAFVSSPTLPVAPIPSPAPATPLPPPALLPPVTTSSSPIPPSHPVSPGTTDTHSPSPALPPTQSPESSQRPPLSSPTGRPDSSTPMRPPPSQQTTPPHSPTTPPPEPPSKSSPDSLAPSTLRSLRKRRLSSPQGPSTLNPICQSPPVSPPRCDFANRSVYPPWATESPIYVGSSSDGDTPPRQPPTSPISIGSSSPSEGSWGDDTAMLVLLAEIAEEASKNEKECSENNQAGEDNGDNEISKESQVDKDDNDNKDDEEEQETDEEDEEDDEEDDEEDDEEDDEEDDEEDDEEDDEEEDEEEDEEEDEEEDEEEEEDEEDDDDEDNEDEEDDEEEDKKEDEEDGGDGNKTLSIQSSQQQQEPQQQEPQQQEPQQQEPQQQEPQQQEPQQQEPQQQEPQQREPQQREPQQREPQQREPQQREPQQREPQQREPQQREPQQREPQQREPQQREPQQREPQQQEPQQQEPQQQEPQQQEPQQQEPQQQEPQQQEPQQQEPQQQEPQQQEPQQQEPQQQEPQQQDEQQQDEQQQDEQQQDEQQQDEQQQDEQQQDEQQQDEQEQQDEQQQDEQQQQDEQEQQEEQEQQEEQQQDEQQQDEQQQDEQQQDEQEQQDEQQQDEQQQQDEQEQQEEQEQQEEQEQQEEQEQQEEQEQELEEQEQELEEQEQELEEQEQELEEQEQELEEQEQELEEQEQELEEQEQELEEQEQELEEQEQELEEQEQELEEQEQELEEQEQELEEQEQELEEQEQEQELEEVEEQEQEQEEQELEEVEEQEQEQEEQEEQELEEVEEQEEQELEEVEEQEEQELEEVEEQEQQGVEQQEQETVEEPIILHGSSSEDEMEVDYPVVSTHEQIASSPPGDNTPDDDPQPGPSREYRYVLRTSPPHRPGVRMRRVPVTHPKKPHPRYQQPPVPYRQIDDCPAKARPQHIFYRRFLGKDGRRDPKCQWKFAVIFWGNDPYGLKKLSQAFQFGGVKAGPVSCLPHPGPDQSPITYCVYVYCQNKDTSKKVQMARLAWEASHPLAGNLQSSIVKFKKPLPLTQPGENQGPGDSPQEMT
HNF4A DNA FP – change in binding of human HNF4 alpha to DNA | P41235 | HNF4a-FITC DNA binding, fluorescence polarization, 1 h | activity change, % at 10 µM | actives 0.3% (n = 360,000) | AID 1224865; in the data active = activity change above about 30%, passing the limit was not always enough;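 note: controls were the assay level and a saturating level of protein; the project sought stronger binding though the title names inhibitors; some compounds called inactive have numbers as strong as hits; positive values seem to mean higher polarization but the record does not say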
B2AR ag – agonists of human beta-2 adrenergic receptor inducing internalization | actives 0.43% (n = 340,000) | response, % (no concentration beside the values) | P07550 | Am2.2-beta2AR cells, FAP receptor internalization, flow cytometry; reference of the scale not given here;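 active = response above a set limit, near 3 SD of response in nonfluorescent compounds, cut at about 42% in these data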;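 note: stock transfer was 100 nL into about 11 µL; a reference agonist was the positive control; negative values mostly stem from fluorescent compounds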
RanGTP-Impb inh – disruptors of Ran-importin-beta complex formation – biochemical, FRET, CFP-Ran, YFP-importin-beta, homogeneous, primary screen; actives 1.1% (n = 300,000); inhibition, % (concentration not given with the values); cell-free CFP-Ran/YFP-importin-beta FRET ratio;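 active = most replicates above 15%; inconclusive = exactly half above 15%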;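 note: 0% = DMSO wells and 100% = Ran loaded with GDP instead of GTP; wells of about 40 µL received 100 nL stock; the first replicate is given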
Calb FLC – C. albicans growth modulation with fluconazole. C. albicans CaCi-2 (fluconazole-resistant clinical isolate) + fluconazole, Alamar Blue growth, 48 h. growth inhibition, % (no concentration beside the values). actives 0.57% (n = 300,000). AID 1979;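 active = most replicates above 75%; inconclusive = exactly half above 75%; inactive = most below 75%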;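 note: all wells also contain fluconazole at 8 µg/ml as a sub-toxic cotreatment; 0% = median of DMSO wells and 100% = median of geldanamycin control wells; wells of about 8 µL received 7.5 nL stock; the first replicate is given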
Starred values were filed as active, the others as inactive; ? = inconclusive; nt = not tested or not shown; + = active, no number; & = joins results of further samples.

#	SMILES	Vif TR-FRET	ALR H2O2 inh	LANA-H2B inh	HNF4A DNA FP	B2AR ag	RanGTP-Impb inh	Calb FLC
1	CC1CCCCC1NC(=O)COC(=O)c1c2c(nc3ccccc13)/C(=C/c1ccco1)CC2 (centres undefined)	1.3µM*	-5	5.0	-35	-30	-79	1
2	CCOc1ccc(N2C(=O)CC(N(CCc3ccccc3)C(=O)/C=C/C(=O)O)C2=O)cc1 (centres undefined)	-8%	-9	-3.5	-0.7	6	1.7	1
3	C/C(=N\NC(=O)CCC(=O)Nc1ccc(C)c(C)c1)C1CC1	-10%	6	0.2	-3.1	2	nt	123*
4	Cc1nn(C)cc1/C=N/NC(=S)Nc1ccc(Cl)cc1Cl	12%	57	4.7	2.0	-22	-1.0	0
5	COc1ccc(OC)c(C2C(C(=O)Nc3cccnc3)=C(C)NC3=C2C(=O)CCC3)c1 (centres undefined)	31%	-43	4.3	2.2	-22	-3.5	2
6	CCN(Cc1cc2ccccc2[nH]c1=O)C(=O)C1CCCCC1	2%	-3	1.7	-2.6	-11	-0.8	-4
7	Cc1ccccc1NC1=NC(=S)N(c2ccccc2)C12CCCCC2	-1%	nt	7.3	0.1	17	-1.8	?
8	Cc1ccc(NS(=O)(=O)c2ccc(OCC(N)=O)cc2)cc1	-5%	nt	0.4	0.7	7	3.0	-21
9	Cc1cc(NC(=O)CCN2C(=O)/C(=C\c3ccccc3Cl)SC2=S)no1	nt	-4	-3.7	3.0	10	-1.2	25
10	COc1ccc(/C(=C/c2ccc(OC(F)F)c(OC)c2)C(=O)O)cc1OC	nt	-39	-0.7	1.7	2	0.2	-9
11	Cc1ccc(-c2nn(-c3ccccc3)cc2C(=O)O)o1	?	12	5.6	nt	nt	3.2	3
12	CCOC(=O)c1cn(-c2ccccc2)nc1-c1ccncc1	-1%	-2	4.6	-1.0	-20	nt	10
13	Cc1ccc(S(=O)(=O)N2CCN(Cc3nc4ccccc4n3C)CC2)cc1	1%	-5	-2.6	1.5	-8	1.8	-7
14	CCCCCCCCCCOC(=O)Cn1c(COc2ccc(OC)cc2)[n+](C)c2ccccc21	nt	-23&-17	0.1&4.6	6.3&4.1	24&5	2.0&3.6	-11&-30
15	CCOC(=O)c1sc(=S)n(C)c1NC(=O)c1ccc(OC)cc1	-10%	-4	1.5	-4.3	11	8.5	17
16	CC(C)OCCOc1ccc2oc(-c3ccco3)cc(=O)c2c1	nt	-2	1.7	-8.0	-5	-0.1	9
17	CCCCCCSc1ccc([C@H]2N[C@@](Cc3ccccc3)(C(=O)OC)[C@H]3C(=O)N(CC)C(=O)[C@@H]23)cc1	nt	1	5.0	2.4	-4	-1.6	0
18	Cc1ccccc1NS(=O)(=O)c1cc(C(=O)N2CCCC2)ccc1C	-4%	-14	-3.8	-1.1	-6	-0.9	-7
19	O=c1[nH]cc(O)c(=O)[nH]1	-6%	5	-0.8	-2.4	3	2.6	-19
20	CCN(CC)S(=O)(=O)c1cc(C(=O)Nc2ccccc2[N+](=O)[O-])ccc1Cl	nt	-1	-3.9	0.6	-1	25*	1
21	Cc1cc(-c2onc(C)c2C(=O)O)no1	-13%	-5	5.6	1.7	3	4.7	-5
22	COc1cccc(CN2CCNC(=O)C2CC(=O)NC2CCCCC2)c1OC (centres undefined)	nt	1	nt	-0.1	-2	-0.2	-3
23	Cc1ccc(NC(=O)NC(=O)CN2CCN(c3ccc(O)cc3)CC2)c(C)c1	nt	99*	9.1	-2.4	9	-4.0	-4
24	Cc1ccccc1CSc1nnc(-c2cnccn2)n1C	-1%	-1	1.1	-3.7	7	1.6	5
25	NC(N)=NS(=O)(=O)c1ccc(NC(=S)NC(=O)c2sc3ccccc3c2Cl)cc1	-36%	-5	-1.0	-0.9	-12	-0.5	-2
26	Cc1ccc(NC(=O)CN(C)C(=O)Cn2nnc(-c3ccccc3)n2)cc1	1%	-9	-15	4.3	-5	-2.2	-6
27	CCn1nc(C)cc1C(=O)N1CCCC(C(=O)c2cccc(OC)c2)C1 (centres undefined)	11%	-14	0.0	-1.3	-7	1.4	14
28	CCOc1ccc2nc(N3CCCC(C(=O)NCC4CCCO4)C3)sc2c1 (centres undefined)	7%	-5	0.5	-7.2	9	-0.1	-3
29	NC(=O)c1ccc[n+](Cc2ccc(-c3ccccc3)cc2)c1	9%	nt	-27	-10	-13	-1.9	-9
30	c1ccc(-c2noc(CSc3nnc(Cc4cccs4)n3-c3ccccc3)n2)cc1	20%	-6	3.2	-2.9	2	3.2	-2
31	O=C(Nc1cccnc1)C1OCCc2ccccc21 (centres undefined)	6%	nt	1.8	0.8	2	0.5	-1
32	CCC(C)NCCOc1ccc(Br)cc1 (centres undefined)	10%	-1	-3.3	-1.3	-4	-1.6	-6
33	C=CCSc1nc2c(sc3nc(C)cc(C)c32)c(=O)[nH]1	-13%	-7	-0.3	-0.3	14	3.5	26
34	Cc1ccc2nc(-c3ccc(NS(=O)(=O)c4ccc(F)cc4)cc3)sc2c1	2%	-8	-2.4	7.4	3	6.3	41
35	COc1ccc(OC)c(S(=O)(=O)N2CCCC(C)C2)c1 (centres undefined)	nt	-8	4.9	3.8	-2	0.4	6
36	COc1ccc(C2NCCc3cc(OC)c(OC)cc32)cc1OC (centres undefined)	-11%	-6	4.8	1.5	3	-0.2	43
37	COc1cccc(N2CCN(c3nc(C)cc(C)c3C#N)CC2)c1	nt	86*	-6.2	-1.5	14	0.1	-11
38	N#Cc1cc(N)ccc1-n1cccc1	5%	1	-2.9	-3.1	-5	3.4	-3
39	CN(C)S(=O)(=O)c1ccc(SCC(=O)Nc2ccc3c(c2)OCCO3)nc1	-22%	nt	nt	-2.8	0	nt	nt
40	COc1cc2c(cc1OC)C(O)C(O)(CO)C(C(=O)O)C2c1cc(OC)c(OC)c(OC)c1 (centres undefined)	8%	nt	nt	7.1	1	nt	nt
41	O=C(CNC(=O)N1CC(=O)Nc2ccccc21)Nc1ccccc1F	nt	-1	-5.6	-1.7	42*	0.8	-4
42	COc1cccc(/C=N\NC(=O)C2C(=O)NCC2c2ccccc2)c1O (centres undefined)	-7%	40	0.0	-0.2	3	1.6	5
43	CCCCNC(=O)Cc1ccc(C)cc1	11%	nt	1.2	3.8	-7	2.7	0
44	CCN(CC(=O)NCc1cccs1)C(=O)c1ccc([N+](=O)[O-])o1	54%	-4	-2.5	-0.6	2	-1.4	10
45	O=C(N/C(=C/c1ccco1)C(=O)N1CCCC1)c1cccs1	?	2	-0.9	1.0	0	0.2	9
46	CC1CCN(S(=O)(=O)c2ccc(NC(=O)[C@@H]3CCCN3C(=O)c3cccs3)cc2)CC1	-4%	nt	0.0	-0.1	1	nt	nt
47	CCOc1ccc(C2CC(c3cccc(OC)c3)Nc3nc(N)nn32)cc1 (centres undefined)	15%	-5	-4.0	0.2	-2	-2.6	1
48	O=C(c1cccc(S(=O)(=O)N2CCCC2)c1)N1CCN(c2ccccc2F)CC1	-1%	-1	-2.0	0.2	-2	3.1	0
49	Cc1ccc(CN(C(=O)c2ccco2)C(C(=O)NC2CCCC2)c2cccnc2)cc1 (centres undefined)	?	-2	+	0.5	-4	-2.2	14
50	CC(=O)Nc1ccc(C(=O)NNC(=O)c2ccc(Cl)cc2)cc1	nt	-1	-3.5	-1.2	-4	0.7	16

(continued)
#	SMILES	Vif TR-FRET	ALR H2O2 inh	LANA-H2B inh	HNF4A DNA FP	B2AR ag	RanGTP-Impb inh	Calb FLC
51	COc1cccc(CN(C(=O)/C=C/c2ccc(Cl)cc2)C2CCS(=O)(=O)C2)c1 (centres undefined)	-4%	-9	-2.1	2.9	-5	7.9	-12
52	COc1ccc([C@H]2CC(=O)C=C(c3ccc(OC(F)(F)F)cc3)C2)cc1	nt	-11	1.3	-2.2	0	nt	nt
53	O=C(CN1C(=O)c2ccccc2S1(=O)=O)Nc1ccc(S(=O)(=O)N2CCCCCC2)cc1	?	-21	-1.2	-6.0	8	2.3	6
54	CN(CCC#N)C(=O)COC(=O)C1c2ccccc2Oc2ccccc21	nt	-6	-5.4	3.2	-5	-0.5	2
55	O=C1C(=O)N(CCCn2ccnc2)C(c2cccc(Br)c2)/C1=C(\O)c1ccc2c(c1)OCCO2 (centres undefined)	nt	7	-8.2	0.0	-3	5.2	nt
56	CCN(C(=O)CSc1nnc(-c2ccc(Cl)cc2)n1C)C1CCS(=O)(=O)C1 (centres undefined)	1%	-37	-7.2	-0.6	4	0.0	-5
57	CC1CCN(c2ccc([N+](=O)[O-])cc2C(N)=O)CC1	-1%	1	-0.5	-4.8	-2	-2.0	0
58	Cc1ccc(-c2n[nH]c(=S)n2/N=C/C=C/c2ccccc2[N+](=O)[O-])cc1	19%	2	-6.8	0.8	-2	?	-9
59	CCN(CC)CCn1c2c(c(SCC(=O)Nc3ccc(C(C)C)cc3)nc1=O)CCC2	4%	-219	-3.5	2.4	-2	7.6	2
60	COc1cc([N+](=O)[O-])cc(/C=N/NC(=O)C(C)Nc2cccc(C)c2)c1O (centres undefined)	nt	50	0.0	-1.8	-2	?	2
61	O=Cc1cc(CCC(=O)O)ccc1O	nt	-3	-1.3	-3.2	-3	6.9	0
62	CCCNC(=O)N1CCN(C(=O)NCCC)CC1	15%	-2	-3.6	-2.0	nt	2.3	3
63	COc1cccc(NC2=NCCCCC2)c1	-3%	nt	-7.1	-1.4	2	0.6	-13
64	CCOCCCNC(=O)c1c(C)c(C(=O)OCC)n(C)c1C	-3%	-18	-7.0	1.8	6	-1.8	8
65	Cc1n[nH]c(C)c1S(=O)(=O)N1CCCC(C(=O)Nc2ccc(Br)cc2)C1 (centres undefined)	nt	9	6.9	2.5	8	7.9	13
66	O=C(O)C1Cc2[nH]cnc2C(c2ccccc2O)N1 (centres undefined)	?	8	4.1	-1.9	-2	-2.0	-18
67	COc1ccc(NC(=O)NC2(C(=O)N3CCCCC3)CCCCC2)cc1	nt	0	-0.1	-0.7	3	0.2	-5
68	COC(=O)c1cc(S(=O)(=O)N2CCN(Cc3ccccc3)CC2)cn1C	nt	-6	-8.6	-3.0	7	2.0	-3
69	CN(CC(=O)Nc1ccccc1Cl)C(=O)C1CCN(C(=O)c2ccc(Cl)cc2)CC1	nt	-2	1.9	3.1	10	-1.9	-8
70	Cn1c(CCCCCN)nc2ccccc21	5%	-7	1.2	-2.1	11	2.7	-13
71	CC(C)OCCCNC(=O)CN1C(=O)/C(=C/c2ccccc2F)Oc2ccccc21	-14%	-2	-1.7	-3.2	-3	2.6	5
72	O=C(c1ccc(-c2ccccc2)cc1)N1CCN(c2ccccn2)CC1	5%	-2	0.5	0.0	-9	2.7	27
73	COc1ccc2c(=O)c(-c3ccccc3C)c(C)oc2c1	1%	-12	-0.2	1.2	0	-0.3	-5
74	COc1ccc(Cn2ccnc2SCC(=O)Nc2ccccc2F)cc1	0%	-4	5.1	-0.7	1	0.5	-5
75	Cn1c(=O)[nH]c(=O)c2c1nc1n2CCS1	-3%	nt	4.0	0.1	1	-1.5	-5
76	COC(=O)c1ccc(NC2CC(=O)N(c3ccccc3C)C2=O)cc1 (centres undefined)	-1%	-2	2.7	-0.7	2	-1.9	-6
77	CSCCC(NS(=O)(=O)c1ccc(Cl)cc1)C(=O)OCc1cccc(Cl)c1 (centres undefined)	15%	-8	-16	3.5	1	-15	-9
78	CC(C)N(C(=O)[C@H]1CC(CC(=O)NCCCN(C)C)C(=O)N2CCc3c([nH]c4ccccc34)[C@]12C)C(C)C (some centres undefined)	-7%	0	nt	4.4	0	nt	nt
